UUG_fidelity = alters start codon recognition fidelity in yeast; AID 602363; activity score, % at 18.7 µM; 350,000 compounds, 0.13% hits; S. cerevisiae UUG-firefly luciferase reporter, luminescence/redox ratio;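 active = replicate mean at a twofold rise or more, about +100% in these data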;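 also: firefly luciferase made from a UUG start codon reports start codon fidelity; reporter light over untreated wells divided by growth signal over untreated wells; some hits fall short of that in this replicate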
HIV_Env_fusion = HIV envelope-mediated fusion inhibition; AID 651610; HeLa-JRFL Env/CEM21 cell fusion, luciferase; 360,000 compounds, 1.1% hits; inhibition, % at 12.3 µM;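 active = mean replicate inhibition score of at least 50 and every replicate individually at or above 50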;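 also: 0% = plate neutral controls and 100% = maraviroc near 300 nM; one replicate is shown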
Active calls of the source: *; [ ] = remark or other dose. Only part of the results is shown, so the mix of outcomes need not match the whole.

SMILES UUG_fidelity HIV_Env_fusion
COc1ccc(NC(=O)Nc2cccc3c2O[C@H](CN(C)S(=O)(=O)c2ccc(C)cc2)[C@H](C)CN([C@H](C)CO)C3=O)cc1 21 2[16.7_µM]
Cc1noc(C)c1NC(=O)Nc1ccc2c(c1)C(=O)N([C@@H](C)CO)C[C@@H](C)[C@H](CN(C)S(=O)(=O)c1cccs1)OCCCC[C@H](C)O2 12 -24[16.7_µM]
O=C(C[C@H]1CC[C@H](NS(=O)(=O)c2ccc(F)cc2)[C@@H](CO)O1)NCCN1CCCCC1 -3 6[16.7_µM]
C[C@H]1CN([C@@H](C)CO)C(=O)c2cccc(NS(=O)(=O)c3cccs3)c2O[C@H]1CN(C)Cc1ccc(Cl)c(Cl)c1 8 -14[16.7_µM]
Cc1ccc(S(=O)(=O)Nc2ccc3c(c2)C(=O)N([C@@H](C)CO)C[C@H](C)[C@H](CN(C)C(=O)Nc2c(C)noc2C)OCCCC[C@H](C)O3)cc1 -4 -16[16.7_µM]
CC(C)NC(=O)N(C)C[C@H]1OCCCC[C@H](C)Oc2ccc(NS(=O)(=O)c3cn(C)cn3)cc2C(=O)N([C@H](C)CO)C[C@@H]1C 3 -31[16.7_µM]
COC(=O)C[C@@H]1CC[C@@H]2[C@H](COC[C@H](O)CN2CCC(F)(F)F)O1 -18 -4[16.7_µM]
C=CC[C@@]1(C(=O)OC)N=C(c2ccc(OCCCO)cc2)O[C@@H]1c1ccccc1CN=[N+]=[N-] 19 2[16.7_µM]
Cc1noc(C)c1NC(=O)N(C)C[C@H]1OCCCC[C@H](C)Oc2ccc(NC(=O)C3CCCCC3)cc2C(=O)N([C@@H](C)CO)C[C@H]1C -5 18[16.7_µM]
CO[C@H]1CN(C)C(=O)c2ccc(NC(=O)Nc3ccc(C(F)(F)F)cc3)cc2OC[C@@H](C)NC[C@H]1C 6 -26[16.7_µM]
CC(C)NC(=O)Nc1ccc2c(c1)C(=O)N([C@H](C)CO)C[C@@H](C)[C@@H](CN(C)S(=O)(=O)c1ccccc1)OCCCC[C@@H](C)O2 -2 -14[16.7_µM]
O=C(Nc1ccc(F)cc1)N[C@@H]1CC[C@@H](CCn2cc(C3(O)CCCC3)nn2)O[C@H]1CO 3 -10[16.7_µM]
CNC[C@@H]1Oc2cc(C#CC3CCCC3)ccc2S(=O)(=O)N([C@H](C)CO)C[C@H]1C 8 26[16.7_µM]
O=C(C[C@H]1C=C[C@@H](NC(=O)NC2CCCCC2)[C@@H](CO)O1)NCc1ccc(F)cc1 11 9[16.7_µM]
O=C(C[C@@H]1C=C[C@H](NC(=O)c2cccc(F)c2)[C@@H](CO)O1)NCc1ccc(Oc2ccccc2)cc1 -15 18[16.7_µM]
CCCNC(=O)N(C)C[C@H]1Oc2cc(-c3ccncc3)ccc2S(=O)(=O)N([C@@H](C)CO)C[C@H]1C -20 -6[16.7_µM]
C[C@@H]1CN([C@H](C)CO)C(=O)c2cc(NC(=O)Cc3ccccc3)ccc2O[C@@H](C)CCCCO[C@H]1CN(C)S(=O)(=O)c1cn(C)cn1 3 5[16.7_µM]
CN(C)C(=O)C[C@@H]1CC[C@@H](NC(=O)C2CC2)[C@@H](CO)O1 -15 9[16.7_µM]
Cc1noc(C)c1NC(=O)Nc1ccc2c(c1)CC(=O)N([C@H](C)CO)C[C@H](C)[C@H](CN(C)S(C)(=O)=O)O2 7 -3[16.7_µM]
C[C@H](CO)N1C[C@H](C)[C@@H](CN(C)S(C)(=O)=O)Oc2ccc(NC(=O)CCN3CCOCC3)cc2CC1=O 2 9[16.7_µM]
CN1C(=O)c2cc(NC(=O)c3ccccc3)ccc2OC[C@@H]2O[C@H](CC(=O)NCC3CC3)CC[C@H]21 10 15[16.7_µM]
C[C@@H]1CN([C@H](C)CO)C(=O)Cc2cc(NC(=O)C3CCCCC3)ccc2O[C@@H]1CN(C)C(=O)Nc1ccc(C(F)(F)F)cc1 -10 8[16.7_µM]
CNC(=O)C[C@H]1CC[C@H]2[C@H](COc3ccc(NS(=O)(=O)c4ccc(F)cc4)cc3C(=O)N2C)O1 9 5[16.7_µM]
C[C@@H]1CN([C@H](C)CO)C(=O)c2cc(NC(=O)CCC(F)(F)F)ccc2O[C@@H](C)CCCCO[C@@H]1CN(C)C(=O)C1CCCCC1 18 -6[16.7_µM]
COc1ccc(NC(=O)N(C)C[C@H]2Oc3ccc(NC(=O)Nc4ccc(F)cc4)cc3CC(=O)N([C@@H](C)CO)C[C@H]2C)cc1 8 15[16.7_µM]
N#C[C@H]1[C@@H](c2ccc(-c3ccccc3F)cc2)[C@H](CO)N1C(=O)C1CCC1 -1 2[16.7_µM]
C[C@H](CO)N1C[C@H](C)[C@@H](CN(C)Cc2ccccc2)Oc2c(cccc2N(C)C)C1=O 1 7[16.7_µM]
COc1ccc(NC(=O)Nc2ccc3c(c2)C(=O)N([C@@H](C)CO)C[C@@H](C)[C@H](CN(C)C(=O)Cc2ccccc2)OCCCC[C@H](C)O3)cc1 33 7[16.7_µM]
C[C@@H]1CN([C@H](C)CO)C(=O)c2cc(C3=CCCC3)cnc2O[C@@H]1CN(C)C(=O)NC1CCCC1 16 -1[16.7_µM]
C[C@@H]1CN([C@@H](C)CO)C(=O)c2cccc(NC(=O)c3cnccn3)c2O[C@H]1CN(C)Cc1ccc(C(F)(F)F)cc1 11 26[16.7_µM]

Brought forward from above: three entries; new compounds follow.
SMILES UUG_fidelity HIV_Env_fusion
COc1ccc(NC(=O)Nc2ccc3c(c2)C(=O)N([C@@H](C)CO)C[C@@H](C)[C@H](CN(C)C(=O)Cc2ccccc2)OCCCC[C@H](C)O3)cc1 33 7[16.7_µM]
C[C@@H]1CN([C@H](C)CO)C(=O)c2cc(C3=CCCC3)cnc2O[C@@H]1CN(C)C(=O)NC1CCCC1 16 -1[16.7_µM]
C[C@@H]1CN([C@@H](C)CO)C(=O)c2cccc(NC(=O)c3cnccn3)c2O[C@H]1CN(C)Cc1ccc(C(F)(F)F)cc1 11 26[16.7_µM]
COc1ccc(S(=O)(=O)N(C)C[C@H]2Oc3ccc(NS(=O)(=O)c4c(C)noc4C)cc3CC(=O)N([C@@H](C)CO)C[C@H]2C)cc1 20 20[16.7_µM]
CNC[C@@H]1Oc2ccc(NC(=O)CCC(F)(F)F)cc2CC(=O)N([C@@H](C)CO)C[C@@H]1C -5 -8[16.7_µM]
COc1ccc(S(=O)(=O)N(C)C[C@@H]2Oc3ccc(NC(=O)NC4CCCCC4)cc3CC(=O)N([C@H](C)CO)C[C@H]2C)cc1 23 -5[16.7_µM]
CCCC#Cc1ccc2c(c1)O[C@H](CN(C)C(C)=O)[C@H](C)CN([C@H](C)CO)S2(=O)=O 13 -4[16.7_µM]
COc1ccc(S(=O)(=O)Nc2cccc3c2O[C@@H](CN(C)C(=O)Nc2ccc4c(c2)OCO4)[C@@H](C)CN([C@@H](C)CO)C3=O)cc1 5 3[16.7_µM]
Cc1noc(C)c1S(=O)(=O)Nc1cccc2c1O[C@H](CN(C)Cc1ccncc1)[C@H](C)CN([C@H](C)CO)C2=O 0 -3[16.7_µM]
C[C@@H]1CN([C@H](C)CO)C(=O)Cc2cc(NC(=O)CCC(F)(F)F)ccc2O[C@H]1CN(C)Cc1ccc2c(c1)OCO2 -6 1[16.7_µM]
C[C@H]1CN([C@@H](C)CO)C(=O)c2cc(NC(=O)CCCCCC(=O)Nc3ccccc3N)ccc2O[C@H]1CN(C)Cc1ccncc1 -4 4[16.7_µM]
COc1ccc(S(=O)(=O)N(C)C[C@H]2Oc3ccc(NC(=O)Nc4ccc(F)cc4)cc3CC(=O)N([C@@H](C)CO)C[C@H]2C)cc1 7 10[16.7_µM]
Cc1noc(C)c1NC(=O)NCC[C@@H]1CC[C@H](NC(=O)Cc2cccnc2)[C@@H](CO)O1 2 -3[16.7_µM]
C[C@@H]1CN([C@H](C)CO)C(=O)Cc2cc(NC(=O)Nc3ccccc3)ccc2O[C@H]1CN(C)C(=O)Nc1cccc2ccccc12 -1 -14[16.7_µM]
CCC(=O)N(C)C[C@H]1Oc2ncc(C3=CCCC3)cc2C(=O)N([C@@H](C)CO)C[C@@H]1C 6 9[16.7_µM]
O=C(C[C@H]1CC[C@@H](NC(=O)c2cccnc2)[C@H](CO)O1)NCc1ccncn1 -12 1[16.7_µM]
CO[C@H]1CN(C)C(=O)c2cc(NS(C)(=O)=O)ccc2OC[C@@H](C)N(C(=O)CN(C)C)C[C@@H]1C -8 -29[16.7_µM]
C[C@H]1CN([C@@H](C)CO)C(=O)Cc2cc(NC(=O)Nc3ccc(F)cc3)ccc2O[C@@H]1CN(C)S(=O)(=O)c1ccccc1 5 -5[16.7_µM]
O=C(C[C@H]1C=C[C@@H](NC(=O)Nc2cccc(F)c2)[C@H](CO)O1)NCC1CC1 -10 -6[16.7_µM]
COCC#Cc1ccc2c(c1)O[C@H](CN(C)C(=O)C1CCCCC1)[C@H](C)CN([C@@H](C)CO)S2(=O)=O -2 21[16.7_µM]
CC(C)NC(=O)Nc1ccc2c(c1)C(=O)N([C@@H](C)CO)C[C@H](C)[C@H](CN(C)C(=O)Nc1ccc(F)cc1)OCCCC[C@@H](C)O2 -4 -10[16.7_µM]
CO[C@H]1CN(C)C(=O)c2ccc(NC(=O)Nc3ccccc3F)cc2OC[C@H](C)N(C(C)=O)C[C@@H]1C 6 -26[16.7_µM]
C[C@@H]1CN([C@@H](C)CO)C(=O)c2cc(-c3ccc(F)cc3)cnc2O[C@@H]1CN(C)CC1CCCCC1 -7 -10[16.7_µM]
CCCC#Cc1cnc2c(c1)C(=O)N([C@@H](C)CO)C[C@H](C)[C@@H](CN(C)C)O2 0 -4[16.7_µM]
C[C@@H]1CN([C@H](C)CO)C(=O)c2cc(C3=CCCCC3)cnc2O[C@@H]1CN(C)C(=O)Nc1cccc(F)c1 4 9[16.7_µM]
COc1ccc(S(=O)(=O)N[C@H]2CC[C@@H](CCNC(=O)c3ccccc3F)O[C@H]2CO)cc1 4 24[16.7_µM]
CCCC(=O)Nc1ccc2c(c1)OC[C@@H](C)N(CCC(F)(F)F)C[C@H](C)[C@@H](OC)CN(C)C2=O 4 -17[16.7_µM]
CC(C)C#Cc1ccc2c(c1)O[C@@H](CN(C)C(=O)CC1CC1)[C@@H](C)CN([C@@H](C)CO)S2(=O)=O 6 -28[16.7_µM]
Cc1noc(C)c1NC(=O)N[C@H]1C=C[C@H](CC(=O)N2CCN(C)CC2)O[C@H]1CO -12 6[16.7_µM]
CNC[C@@H]1OCCCC[C@H](C)Oc2ccc(NC(=O)c3ccccc3)cc2C(=O)N([C@@H](C)CO)C[C@H]1C 47 2[16.7_µM]
C[C@@H]1CN([C@@H](C)CO)S(=O)(=O)c2ccc(C#CCC3CCCC3)cc2O[C@H]1CN(C)C(=O)c1cnccn1 5 31[16.7_µM]
COc1ccc(CN(C)C[C@@H]2OCCCC[C@H](C)Oc3ccc(NC(=O)Cc4ccccc4)cc3C(=O)N([C@@H](C)CO)C[C@H]2C)cc1 16 4[16.7_µM]
COc1ccccc1-c1ccc([C@@H]2[C@@H](C#N)N(C(=O)C3CCC3)[C@H]2CO)cc1 0 4[16.7_µM]

The final 5 compounds of the section before are carried over, then new ones follow:
SMILES UUG_fidelity HIV_Env_fusion
Cc1noc(C)c1NC(=O)N[C@H]1C=C[C@H](CC(=O)N2CCN(C)CC2)O[C@H]1CO -12 6[16.7_µM]
CNC[C@@H]1OCCCC[C@H](C)Oc2ccc(NC(=O)c3ccccc3)cc2C(=O)N([C@@H](C)CO)C[C@H]1C 47 2[16.7_µM]
C[C@@H]1CN([C@@H](C)CO)S(=O)(=O)c2ccc(C#CCC3CCCC3)cc2O[C@H]1CN(C)C(=O)c1cnccn1 5 31[16.7_µM]
COc1ccc(CN(C)C[C@@H]2OCCCC[C@H](C)Oc3ccc(NC(=O)Cc4ccccc4)cc3C(=O)N([C@@H](C)CO)C[C@H]2C)cc1 16 4[16.7_µM]
COc1ccccc1-c1ccc([C@@H]2[C@@H](C#N)N(C(=O)C3CCC3)[C@H]2CO)cc1 0 4[16.7_µM]
O=C(C[C@@H]1CC[C@@H](NC(=O)c2cccc(F)c2)[C@@H](CO)O1)NCc1ccc(Oc2ccccc2)cc1 1 40[16.7_µM]
CCCN(C)C[C@@H]1OCCCC[C@@H](C)Oc2ccc(NS(=O)(=O)c3c(C)noc3C)cc2C(=O)N([C@H](C)CO)C[C@@H]1C -1 -3[16.7_µM]
CC(C)NC(=O)Nc1cccc2c1O[C@H](CN(C)CC1CCCCC1)[C@H](C)CN([C@@H](C)CO)C2=O -4 -36[16.7_µM]
Cc1ccc(S(=O)(=O)Nc2ccc3c(c2)C(=O)N([C@@H](C)CO)C[C@H](C)[C@H](CN(C)C(=O)Nc2ccc(F)cc2)OCCCC[C@@H](C)O3)cc1 3 1[16.7_µM]
CC(C)NC(=O)Nc1ccc2c(c1)C(=O)N([C@@H](C)CO)C[C@@H](C)[C@@H](CN(C)S(=O)(=O)c1ccc(F)cc1)OCCCC[C@H](C)O2 -4 -16[16.7_µM]
C[C@H](CO)N1C[C@H](C)[C@@H](CN(C)C(=O)C2CCOCC2)Oc2cc(-c3ccc(F)cc3)ccc2S1(=O)=O 6 -12[16.7_µM]
C[C@@H]1CN([C@H](C)CO)C(=O)c2cc(NC(=O)C3CCCCC3)ccc2O[C@H]1CN(C)C(=O)Nc1ccc2c(c1)OCO2 -7 5[16.7_µM]
CCCNC(=O)C[C@@H]1C[C@@H]2c3cc(NC(=O)CN(C)C)ccc3O[C@@H]2[C@H](CO)O1 -12 91*[16.7_µM]
O=C(Nc1nnc(-c2ccco2)o1)c1ccc(S(=O)(=O)N2CCCCC2)cc1 -15 1
C[C@@H]1CCCCO[C@H](CN(C)S(=O)(=O)c2ccc(F)cc2)[C@H](C)CN([C@@H](C)CO)C(=O)c2cc(NC(=O)Nc3cccc4ccccc34)ccc2O1 -15 -48[16.7_µM]
CC(C)C#Cc1cnc2c(c1)C(=O)N([C@H](C)CO)C[C@@H](C)[C@H](CN(C)Cc1ccccc1F)O2 -4 28[16.7_µM]

From PubChem BioAssay
